Screens: PubChem, National Center for Advancing Translational Sciences (NCATS)
2A StopGo = lowers the luciferase signal of an FMDV 2A StopGo reporter; AID 1159524; human cells with a luciferase reporter of 2A StopGo recoding; control for the full effect not named in the record; 410,000 tested, 1.2% active; Potency, µM (titrated, usually from 57.9 µM), without a hit: at the highest dose signal change, negative = less light; active = well fitted falling curve with a large enough effect; inconclusive = small, poorly fitted or top-dose-only effect; inactive = no such curve, though single readings can be large or run the other way; tested in HEK293T cells; further: on the % scale 0 is the no-effect control and ±100 the full control effect; nearly all actives have a fitted effect of over 45% in size; luciferase light after 4 h
MARV entry inh = Marburg virus entry inhibition. Marburg virus pseudotyped entry inhibition, cell reporter; control for the full effect not named in the record; about a third of the inactives were read at about 46 µM. 300,000 tested, 1.8% active. Potency, µM (doses to about 37.8 µM), for inactives: top-dose activity change, negative = inhibition, actives largely listed as inhibitors; active = well fitted inhibition curve with a large enough effect; inconclusive = small, poorly fitted or top-dose-only effect, or effect the other way; inactive = flat fitted curve, though single readings scatter; tested in HEK293 cells; about a fifth of its hits are not listed in these tables; further: on the % scale 0 is the no-effect control and ±100 the full control effect; luciferase read-out
RE007 growth inh = less growth of the S. pombe RE007 Vpr strain | S. pombe RE007 Vpr strain, BacTiter-Glo ATP luminescence, 24 h; control for the full effect not named in the record | Potency, µM (series often up to 92.2 µM), inactives show at the top dose activity change, negative = less growth | 360,000 tested, 0.21% active | AID 651644; active = well fitted falling curve with a large enough effect; inconclusive = small, poorly fitted or top-dose-only effect; inactive = no such curve, though single readings can be large or run the other way;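 further: on the % scale 0 is the no-effect control and ±100 the full control effect; nearly all actives have a fitted effect of over 50% in size; the assay follows cell death caused by Vpr and the record does not say whether a fall means rescue or toxicity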
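Fission yeast strain RE007, carrying one chromosomally integrated HIV-1 vpr copy, was seeded at OD 0.01 in PMG+AL medium with 23 nL pinned compound. After 24 h at 30 °C and 99% humidity, viability was read by BacTiter-Glo luminescence.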
NS1 inh = inhibitors of influenza NS1 protein function. S. cerevisiae slowed by influenza A NS1, growth recovery by OD600. Potency, µM (series often up to 46.1 µM), inactives show top-dose activity, positive = more growth. 270,000 tested, 0.4% active; further: actives are rising curves; nearly all actives have a fitted effect of over 50% in size
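A cell-based growth assay was used: compounds that relieve NS1-induced slow growth of budding yeast raise OD600. Assay medium was yeast nitrogen base with ammonium sulphate and -URA supplement, pH 6.0, with 2% galactose.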
LASV entry inh = Lassa virus entry inhibition; Lassa virus pseudotype entry inhibition, cell reporter; control for the full effect not named in the record; 300,000 tested, 1.2% active; Potency, µM (highest dose often 37.9 µM), for inactives: at the highest dose activity change, negative = inhibition, usual class: inhibitors; active means well fitted inhibition curve with a large enough effect; inconclusive means small, poorly fitted or top-dose-only effect, or effect the other way; inactive means flat fitted curve, though single readings scatter; tested in HEK293 cells; further: on the % scale 0 is the no-effect control and ±100 the full control effect; nearly all actives have a fitted effect of over 50% in size; luciferase read-out
Cruzain noTriton = inhibitors of Trypanosoma cruzi cruzain without detergent. P25779. purified cruzain, Z-FR-AMC fluorescence, no detergent. Potency, µM, for the others: max response, negative = inhibition, hits mostly inhibitors. 200,000 tested, 2.3% active. AID 1476; active means well fitted curve in the direction sought with a large enough effect; inconclusive means small, poorly fitted or top-dose-only effect, or another doubt; inactive means no such curve, though single readings can be large; an effect the other way counts as inactive or inconclusive;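 further: plate controls were enzyme without inhibitor for no effect and buffer without enzyme for full effect; nearly all actives have a fitted effect of over 40% in size; top concentration of the series not given in the record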
Target sequence (P25779 123-467 limits assumed): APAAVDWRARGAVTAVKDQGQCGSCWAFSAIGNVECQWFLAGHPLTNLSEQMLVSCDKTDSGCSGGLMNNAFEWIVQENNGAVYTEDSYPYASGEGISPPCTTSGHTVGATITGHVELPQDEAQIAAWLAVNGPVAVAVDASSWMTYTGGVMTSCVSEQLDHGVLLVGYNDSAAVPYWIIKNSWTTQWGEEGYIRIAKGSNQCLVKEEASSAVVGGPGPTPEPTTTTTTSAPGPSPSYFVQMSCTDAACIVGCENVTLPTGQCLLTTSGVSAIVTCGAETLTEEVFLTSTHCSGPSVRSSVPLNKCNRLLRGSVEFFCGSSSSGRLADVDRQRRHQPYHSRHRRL
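Detergent-free condition (0.00005% Triton X-100) in acetate buffer pH 5.5 with DTT. 1.5 nM enzyme and compound were pre-mixed 15 min, then 2 uM Z-FR-AMC substrate added; reaction progress from fluorescence change between first and third reads (60 s).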
Cruzain Triton = cruzain (T. cruzi) inhibition with detergent. purified cruzain, Z-FR-AMC fluorescence, 0.01% Triton. Potency, µM, for inactives: max response, negative = inhibition, usual class: inhibitors. 200,000 tested, 0.43% active. AID 1478; active means well fitted curve in the direction sought with a large enough effect; inconclusive means small, poorly fitted or top-dose-only effect, or another doubt; inactive means no such curve, though single readings can be large; an effect the other way counts as inactive or inconclusive;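 further: plate controls were neutral wells for no effect and buffer without enzyme for full effect; nearly all actives have a fitted effect of over 40% in size; top concentration of the series not given in the record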
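Read-out: AMC fluorescence (360 nm excitation, 450 nm emission), four reads over 2 min, first-to-third difference used. Conditions: cruzain 1.5 nM, Z-FR-AMC 2 uM, pH 5.5 acetate, 5 mM DTT, 0.01% Triton X-100.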
SARS PLP yeast = blocks SARS-CoV papain-like protease in a yeast assay. S. cerevisiae expressing SARS-CoV PLpro, growth rescue; control for the full effect not named in the record. Potency, µM (top dose mostly 32.9 µM), without a hit: at the highest dose activity, positive = growth rescue. 330,000 tested, 0.19% active; further: 0% is about no effect; nearly all actives have a fitted effect of over 55% in size; growth read by luminescence after 48 h
* = called active by the depositor; ? = inconclusive; · = not tested or not shown; & = joins results of further samples; [ ] = another dose, or the depositor's remark. Unless noted, the call rests on the fitted dose curve; in most records, active means well fitted rising curve with a large enough effect; inconclusive means small, poorly fitted or top-dose-only effect; inactive means no such curve, though single readings can be large or run the other way. Potency means the concentration at half of the fitted maximal effect.

SMILES | 2A StopGo | MARV entry inh | RE007 growth inh | NS1 inh | LASV entry inh | Cruzain noTriton | Cruzain Triton | SARS PLP yeast
Cc1ccc2c(c1)C(c1ccc(O)cc1)(c1ccc(O)cc1)C(=O)N2C | -18.3% | 17.2%[46.1 µM] | -5.8% | -2.8% | 2.3% | · | · | 1.2%
O=C(c1cc2ccccc2o1)N1CCN(Cc2ccc3c(c2)OCO3)CC1 | -16.6% | · | 1.8% | -15.8% | · | · | · | -2.1%
CCOC(=O)C1=C(C)N=c2s/c(=C/c3ccc(OCC(=O)O)cc3)c(=O)n2C1c1ccc(F)cc1 (configuration not stated) | ? | · | -4.6% | 7.0% | · | · | · | -0.9%
CC(C)(C)NC(=O)C1CCCN(S(=O)(=O)c2cccc3cccnc23)C1 (configuration not stated) | -9.2% | · | -2.8% | 2.2% | · | -8.3% | -0.4% | -0.8%
COC(=O)c1cccc(N/C=C(\[N+](=O)[O-])S(=O)(=O)c2ccccc2)c1 | 19.8% | ? | 1.0% | -1.7% | -0.9% | · | · | 4.8%
NC(=O)c1cccn1-c1ncc(C(F)(F)F)cc1Cl | -15.5% | 10.7% | 6.4% | · | 1.9% | · | · | 1.0%
COc1ccc(NC(=O)CSc2nnc(-c3ccoc3C)n2CCc2ccccc2)cc1 | -6.8% | -14.6%[46.1 µM] | 16.6% | -30.6% | -8.5% | -2.1% | 0.3% | -4.0%
O=C(CCNC(=O)c1ccc(Br)cc1)Nc1cc(Cl)ccc1-n1cncn1 | 7.5% | 1.7%[46.1 µM] | -11.4% | · | 8.1% | · | · | 2.2%
Cc1ccccc1-n1c(SCC(=O)N/N=C/C=C/c2ccccc2[N+](=O)[O-])nc2ccccc2c1=O | 20.3% | 7.08µM* | -5.4% | ? | ? | ? | -0.9% | 16.0%
COc1ccc(-c2nc3ccccn3c2C=O)cc1 | 2.6% | ? | -15.5% | -10.6% | ? | -3.6% | -4.9% | -34.4%
Cc1ccc2nc(SCC(=O)Nc3cccc([N+](=O)[O-])c3)[nH]c2c1 | -17.6% | 2.4% | -6.3% | 14.7% | 61.2%[14.3 µM] | -28.6% | ? | 1.1%
CCn1c(CN2CCCCC2)nc2cc(NC(=O)c3cc(OC)c(OC)c(OC)c3)ccc21 | ? | -21.6%[46.1 µM] | · | · | -3.0%[46.1 µM] | -10.7% | -2.2% | ·
Cc1ccc(NC(=O)CSCC(=O)Nc2ccc(N3CCOCC3)c(Cl)c2)cc1 | -7.0% | 9.8% | 9.7% | 0.5% | -16.3% | -5.2% | -3.3% | 4.0%
CCCNC(=O)/C(C#N)=C1\N=C(NC(=O)c2cccs2)c2ccccc21 | -2.9% | 28.2%[46.1 µM] | -6.9% | -10.9% | 14.7%[46.1 µM] | · | · | 8.5%
CC(C)(C)NS(=O)(=O)c1ccc(-c2csnn2)s1 | 3.5% | -8.0%[46.1 µM] | 4.2% | 3.0% | 13.0% | 19.1% | -0.1% | -11.0%
COc1ccc(N2CCN(C(=O)CN3C(=O)CSc4c3c(C)nn4-c3ccccc3)CC2)cc1 | -26.1% | · | · | · | ? | 9.8% | -1.2% | ·
COC(=O)C1C(=O)c2c(n[nH]c2C)CC1(C)C (configuration not stated) | -14.5% | -0.9% | 15.0% | -4.7% | ? | -2.8% | -2.7% | 2.1%
C/C(=N\c1nc2ccccc2n1C)c1cc(Cl)ccc1O | -1.3% | ? | 1.6% | 10.4% | 2.3% | -7.1% | -5.5% | ?
Cc1cccc(CSc2nnc(-c3cccs3)n2Cc2ccco2)c1 | 2.0% | ? | 8.6% | -58.5% | 2.5% | 12.3% | -7.6% | -22.3%
O=C1CC2CS(=O)(=O)CC2N1c1ccc(Cl)cc1Cl (configuration not stated) | 3.0% | 2.3% | -20.7% | 10.5% | 9.0% | 1.0% | -0.7% | 14.7%

Results in RE007 growth inh, for two of the compounds above:
SMILES	RE007 growth inh
O=C1CC2CS(=O)(=O)CC2N1c1ccc(Cl)cc1Cl (configuration not stated)	-20.7%
C/C(=N\c1nc2ccccc2n1C)c1cc(Cl)ccc1O	1.6%

Going on with the list.
SMILES | 2A StopGo | MARV entry inh | RE007 growth inh | NS1 inh | LASV entry inh | Cruzain noTriton | Cruzain Triton | SARS PLP yeast
Cc1ccc(CSCCNS(=O)(=O)c2ccc([N+](=O)[O-])cc2)cc1 | 51.5%[activator] | -26.9%[46.1 µM] | -4.2% | -62.3% | ? | · | · | -9.3%
O=C(CNC(=O)c1cc(S(=O)(=O)N2CCCCC2)ccc1N1CCOCC1)Nc1ccc(F)c(F)c1 | -4.6% | 4.6% | -6.7% | · | 11.2% | · | · | 0.2%
CC1(C)CC(=O)C2=C(C1)OC1=C(C(=O)CC(C)(C)C1)C2c1ccc(O)cc1O | 6.31µM* | ? | ? | -84.0% | -87.1% | -14.3% | -2.6% | -22.7%
Cc1ccc(S(=O)(=O)N2CCOCC2)cc1NC(=O)CSc1nnc(COc2ccccc2F)n1N | -16.6% | -14.1% | 11.9% | · | 8.6% | · | · | ·
CC(C)[C@H](NC(=O)[C@@H]1Cc2ccccc2CN1)C(=O)NC1CCCCC1 | -2.6% | 3.5%[46.1 µM] | -10.7% | -14.9% | -16.1%[46.1 µM] | · | · | -1.9%
Cc1ccc(CN(c2ccc(C(=O)N3CCCC3)cc2)S(C)(=O)=O)cc1 | ? | 10.4% | -2.1% | -9.9% | -27.0% | ? | 6.5% | 2.0%
O=C(NCCNc1ccc([N+](=O)[O-])cc1)c1cccc2c(Br)cccc12 | -28.5% | -3.6% | 4.1% | 18.8% | ? | -20.5% | -7.7% | -2.6%
CCN(C(=O)CSc1nc2ccccc2nc1Cc1ccc(F)cc1)c1cccc(C)c1 | -27.5% | · | · | · | ? | -1.1% | -5.1% | ·
O=C(c1cnn(-c2ccc(F)cc2)c1-n1cccc1)N1CCN(c2cccc(Cl)c2)CC1 | ? | · | · | · | 3.7%[46.1 µM] | -13.8% | -3.0% | ·
NC(=O)CCn1c(C(=O)c2cccc([N+](=O)[O-])c2)c2ccccc2[n+]1[O-] | -27.3% | · | -9.6% | 1.5% | · | · | · | 1.9%
CCOC(Cn1c(SCc2cc(C(C)=O)ccc2OC)nc2ccccc2c1=O)OCC | -25.9% | ? | 6.0% | -0.1% | 17.0% | 21.9% | -3.2% | 6.6%
COc1cc(C(=O)Sc2ccc(C)cc2)cc(OC)c1OC | -19.6% | 3.5% | -9.4% | -9.6% | -0.8% | ? | -3.5% | -12.8%
Cc1cc(NC(=O)Nc2cccc3ccccc23)no1 | 20.5% | 7.9%&7.9%[46.1 µM] | -1.9% | -14.8%&1.3% | -20.7% | 12.4% | -2.7% | -1.1%&0.6%
O=C(Cn1cc(SCc2ccc(Cl)cc2)c2ccccc21)N1CCOCC1 | 13.7%&-2.4% | ? | 2.7% | -32.5% | -9.1%[46.1 µM] | ? | -10.3%&-12.4% | -1.2%
O=C1NC(=O)C2(Cc3ccccc3N3CCCC32)C(=O)N1Cc1ccccc1 (configuration not stated) | -6.8% | -0.5% | -8.6% | 16.4% | -1.7% | -15.4% | 4.4% | 2.5%
CCOC(=O)N1CCC(NC(=O)C2CCCN(Cc3nc(-c4cccc(Cl)c4)oc3C)C2)CC1 (configuration not stated) | 14.1µM* | · | -5.7% | 0.6% | · | -2.4% | 0.6% | -5.5%
COc1ccccc1C(=O)O/N=C(/c1ccncc1)c1ccc([N+](=O)[O-])cc1 | -19.3% | 1.1% | 17.5% | -4.1% | ? | · | · | 0.6%
Cc1cc(C)cc(OCC(=O)N(Cc2cccs2)c2ccc(Cl)cc2)c1 | -5.5% | -8.0%[46.1 µM] | · | · | 3.8%[46.1 µM] | -1.2% | -9.5% | ·
O=[N+]([O-])c1cccc(N(CC(O)CN2CCCCC2)S(=O)(=O)c2ccccc2)c1 (configuration not stated) | 4.4% | ? | 2.7% | 10.2% | · | · | · | 5.2%
CC(=O)Oc1ccc(-c2cccc(C(=O)NCCCO)c2)cc1 | 21.9% | 2.9% | 5.9% | 19.1% | 4.2% | -1.0% | -3.0% | ?

Random excerpt: three entries already listed
SMILES | 2A StopGo | MARV entry inh | RE007 growth inh | NS1 inh | LASV entry inh | Cruzain noTriton | Cruzain Triton | SARS PLP yeast
Cc1ccc(CSCCNS(=O)(=O)c2ccc([N+](=O)[O-])cc2)cc1 | 51.5%[activator] | -26.9%[46.1 µM] | -4.2% | -62.3% | ? | · | · | -9.3%
Cc1cc(NC(=O)Nc2cccc3ccccc23)no1 | 20.5% | 7.9%&7.9%[46.1 µM] | -1.9% | -14.8%&1.3% | -20.7% | 12.4% | -2.7% | -1.1%&0.6%
O=C(c1cnn(-c2ccc(F)cc2)c1-n1cccc1)N1CCN(c2cccc(Cl)c2)CC1 | ? | · | · | · | 3.7%[46.1 µM] | -13.8% | -3.0% | ·

More compounds.
SMILES | 2A StopGo | MARV entry inh | RE007 growth inh | NS1 inh | LASV entry inh | Cruzain noTriton | Cruzain Triton | SARS PLP yeast
COc1ccc(CCNC(=O)CNCC(c2ccccc2)N(C)C)cc1OC (configuration not stated) | 1.3% | · | -1.5% | 2.4% | · | · | · | 0.6%
CCc1c(C)sc2nc3c(C(=O)N4CCOCC4)cc(C(=O)c4ccccc4O)cn3c(=O)c12 | 6.5% | ? | 12.0% | · | ? | · | · | 0.0%
CCN1C(=O)/C(=C2\SC(=S)N(NC(=O)c3ccccc3O)C2=O)c2ccccc21 | -17.9% | 13.1% | -17.7% | 24.7% | -13.4% | · | · | -3.3%
CC1(C)Oc2ccc(C(=O)NC3CCCC3)cc2N(CC(=O)N2CCOCC2)C1=O | 5.1% | 4.1% | -4.7% | 0.3% | -22.6% | 1.6% | 6.9% | 7.1%
O=C(CSCCc1ccccn1)Nc1cccnc1 | 5.9% | 8.3% | 5.6% | -7.8% | -8.9% | -9.5% | 5.8% | -1.2%
